Source: PubChem
Autofluor counter – compound fluorescence in toxin protease inhibitor counterscreen; compound autofluorescence counterscreen, microsphere flow cytometry; active compounds read high; fluorescence intensity (concentration not given with the values); 3.1% of 360,000 active; AID 624483;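 active = at least 3 SD above the mean of all compounds, about 16000 in these data; inconclusive = too few beads counted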;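 note: 100 nL of 1 mM stock went into each well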
PrP UTR inh – suppresses PrP 5' UTR mRNA reporter expression; inhibition, % (concentration not given with the values); cell-based PrP 5' UTR mRNA reporter, plate reader; 0.35% of 340,000 active;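 active = every replicate at 50% or more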;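 note: 0 = median of the neutral control wells; tested in H4 reporter cells; numbers are from one replicate; inactives centre near -14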
RN4220 kill – kills Staphylococcus aureus RN4220. S. aureus RN4220 growth, OD600, 16 h. inhibition, % (no concentration beside the values). 0.33% of 330,000 active. AID 1259311;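 active = z-score of -3 or lower and OD600 up to 0.18 on both plates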;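 note: plate controls were untreated cells for no effect and reference antibiotic for full effect; stock transfer was 100 nL into about 80 µL; one replicate is shown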
BJeLR viability – kills HRASV12-expressing BJeLR cells. 0.17% of 300,000 active. AID 1554. inhibition, % (concentration not given with the values). BJeLR (HRASV12) viability, CellTiter-Glo ATP luminescence, 48 h; reference of the scale not given here;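 active = replicate mean above 50%; inconclusive = above 50% but judged a plate artefact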;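 note: 50 nL library stock added to about 25 µL; numbers are from one replicate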
Sa ugtP lethal – kills S. aureus RN4220 lacking UgtP | S. aureus RN4220 ugtP deletion, OD600 growth, 16 h; some inactives read as strong as hits | growth inhibition, % (test concentration not listed) | 0.54% of 330,000 active;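 active = z-score under -3 and OD600 up to 0.15 on both plates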;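 note: plate controls were untreated wells for no effect and antibiotic for full effect; wells of about 80 µL received 100 nL stock; the first replicate is given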
Mtb hypoxia inh – inhibitors of hypoxia-regulated fluorescent reporter in Mycobacterium tuberculosis; M. tuberculosis hypoxia-regulated fluorescent reporter, fluorescence; fluorescence inhibition, % (no concentration beside the values); 0.1% of 300,000 active; AID 1159583;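 active = 35 to 45% if threefold the growth effect, above 45% if 1.5-fold the growth effect; inactive = the rest, general growth blockers included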;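 note: wells of about 50 µL received 100 nL stock; 0% = vehicle wells and 100% = reference inhibitor wells; whole bacteria with a GFP reporter of the hypoxia response; strong numbers were not always called active; many hits fall short of the cut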
Mtb hypoxia inh growth – second read-out of Mtb hypoxia inh, no call of its own (marks repeat the call); growth inhibition, %; measured here: M. tuberculosis growth (absorbance);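 0% = vehicle and 100% = reference antibiotic; read after six days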
* = called active by the depositor; ? = inconclusive; · = no result given. Hits appear at their usual frequency. Share with any hit: about 4%.

smiles	Autofluor counter	PrP UTR inh	RN4220 kill	BJeLR viability	Sa ugtP lethal	Mtb hypoxia inh	Mtb hypoxia inh growth
CC(=O)Oc1ccc(/C=C(\NC(=O)c2cccc(Br)c2)C(=O)Nc2ccc(C(=O)O)cc2)cc1	·	-9	3.9	-15	10	2	7
COc1ccc(OC)c(N2C(=O)c3cccnc3C2=O)c1	4084	10	-2.3	-15	0	-10	2
NS(=O)(=O)c1ccc(NC(=S)Nc2ccc(C(=O)N3CCCCC3)cc2)cc1	2747	-40	-4.5	6	-5	2	8
c1ccc(-c2nnsc2-c2ncc[nH]2)cc1	5078	-19	2.3	5	14	7	1
CCOC(=O)c1ccc(N2CCN(C(C)=O)CC2)c(NC(=O)c2cccnc2)c1	3344	-11	6.5	7	-3	1	8
Cc1oc(-c2ccccc2F)nc1CS(=O)(=O)CC(=O)NC1CCCC1	6858	-15	-4.9	0	-4	7	15
Cc1onc(-c2ccccc2)c1C(=O)Nc1ccccc1NC(=O)c1c(-c2ccccc2)noc1C	4654	-4	2.7	-11	3	-7	-15
CN(C)/C=N/c1c(C#N)cnn1C	3396	-20	·	10	·	·	·
CCOC(=O)C1=C(C)NC(=S)NC1c1ccco1 (stereo not given)	3819	-37	0.4	-8	-3	-3	-8
COc1cc(C=NNC(N)=S)ccc1OC(=O)c1ccc(C)cc1	·	·	11	·	27	·	·
Cc1ccc(-c2nc(CS(=O)(=O)CC(=O)NCc3cccc(F)c3)c(C)o2)cc1	5631	-21	5.9	-14	-6	-2	2
CCOc1ccc(CCNS(=O)(=O)c2ccc3c(c2)N(C(C)=O)CCO3)cc1OCC	4248	1	7.9	5	16	-6	-2
COc1ccc(Br)cc1C=NN1CCN(Cc2ccccc2Cl)CC1	·	·	-2.4	·	31	3	3
Cc1cc(C)nc(NC2=NCC(=O)N2c2ccccc2Br)n1	5127	-14	3.1	6	7	2	6
CC(C)(C)CC(=O)Nc1nnc(SCC(=O)NCc2cccs2)s1	4128	-19	1.8	8	6	19	-2
CCOc1ccccc1CN1C(=O)c2ccccc2C1C(=O)NC(C)CC (stereo not given)	9354	-19	0.9	11	1	9	6
CC(CC(=O)Nc1ccc(N(C)C)cc1)=NNC(=O)c1ccccc1O	·	·	1.2	·	-7	2	3
Cn1c(=NC(=O)c2ccc(S(=O)(=O)N3CCCc4ccccc43)cc2)sc2cc(S(C)(=O)=O)ccc21	7709	-5	5.2	3	-8	1	5
Cc1ccc(C(=O)C(C)OC(=O)Cn2cnc3c2c(=O)n(C)c(=O)n3C)cc1 (stereo not given)	5959	-26	1.6	-1	3	10	4
Cc1ccc(-n2c(SCCN)nnc2-c2cccc(C)c2)cc1	4819	-29	0.8	3	-2	13	6
CN(Cc1cc([N+](=O)[O-])c2cccnc2c1O)C1CCCCC1	·	·	4.5	-1	4	0	2
Oc1ccc(N=Nc2ccccc2-c2nn[nH]n2)c(O)c1	3776	-24	15	2	-16	19	2
CNC(=O)CSc1nnc(-c2cnccn2)n1C	4589	-28	4.2	-3	8	9	6
COc1cc(OC)cc(C(=O)N2CC(=O)Nc3ccccc32)c1	3879	-8	4.8	27	8	2	4
FC(F)Oc1ccc(-c2csc(NNC3=NCCCCC3)n2)cc1	4317	-18	-5.2	5	-36	8	2
N/C(COc1cccc(Cl)c1)=N\O	6007	5	·	5	·	·	·
CNS(=O)(=O)c1cc(NC(=O)c2cncn2-c2ccccc2)ccc1C	3599	-20	4.8	2	5	-4	3
CCCc1cc(=O)[nH]c(SCC(=O)N(C)CC(=O)Nc2ccc(C)cc2)n1	4625	3	-4.5	-5	-1	-7	15
CCN1CCN(c2ccc(S(=O)(=O)N3CCCCC3)cc2NC(=O)c2cc3ccccc3o2)CC1	6953	-14	22	4	-2	·	·
O=C(CCCCCNC(=O)c1ccccc1)NN=Cc1ccco1	·	·	6.8	·	7	0	6

Next section; the last 3 above are carried over.
smiles	Autofluor counter	PrP UTR inh	RN4220 kill	BJeLR viability	Sa ugtP lethal	Mtb hypoxia inh	Mtb hypoxia inh growth
CCCc1cc(=O)[nH]c(SCC(=O)N(C)CC(=O)Nc2ccc(C)cc2)n1	4625	3	-4.5	-5	-1	-7	15
CCN1CCN(c2ccc(S(=O)(=O)N3CCCCC3)cc2NC(=O)c2cc3ccccc3o2)CC1	6953	-14	22	4	-2	·	·
O=C(CCCCCNC(=O)c1ccccc1)NN=Cc1ccco1	·	·	6.8	·	7	0	6
Cc1ccc(NCSc2ccc(Cl)cc2)cc1	3435	-60	4.4	·	6	14	8
O=C(O)c1ccccc1-c1ccccc1C(=O)Nc1nc2ccccc2s1	6471	-14	3.8	-4	4	·	·
O=[N+]([O-])C=C1NCCN1Cc1ccc(Cl)nc1	·	·	1.4	·	2	5	6
Cc1ccc(CNC(=O)C2CCN(S(=O)(=O)c3c(C)noc3/C=C/c3ccco3)CC2)cc1	6218	-12	-13	6	-10	3	4
c1cc2nc(C34CC5CC(CC(C5)C3)C4)[nH]c2cn1	2544	-20	6.4	2	-2	0	-2
COc1cccc(C2C(C#N)=C(N)Oc3cc(C)n(Cc4ccco4)c(=O)c32)c1 (stereo not given)	3025	-24	6.5	-7	-2	8	6
Cc1cnc(C(=O)OCC(=O)Nc2cc(Cl)ccc2C#N)cn1	4171	-20	1.3	·	2	14	4
Cn1c(SCC(=O)Nc2ccc3cn[nH]c3c2)nnc1-c1cccs1	2466	-8	-6.4	-1	0	2	4
COc1ccc(C=NNC(=O)c2cccc(C(=O)NN=Cc3ccc(OC)cc3)n2)cc1	·	·	0.3	·	10	-15	-9
O=c1c2c(nc3n1CCS3)c1cc(F)ccc1n2Cc1cc(=O)n2cc(Cl)ccc2n1	·	·	9.8	-1	3	12	6
CCCc1c(OCCCOc2ccc(OCC(=O)O)cc2)ccc(C(C)=O)c1O	5855	-18	14	·	-14	-12	-8
O=C(CC12CC3CC(CC(C3)C1)C2)NN=Cc1ccc[nH]1	·	·	-2.1	·	7	-4	-5
NC(=O)C1CCCCNc2c(F)cc([N+](=O)[O-])cc2C(=O)NC(CC(=O)O)C(=O)NCC(=O)N1 (stereo not given)	·	·	3.8	·	0	12	11
CC(=O)C1=C(C)N(Cc2ccccc2)C(=O)N[C@H]1c1cccc(F)c1	3504	-15	·	-1	·	·	·
CCCCOc1ccc(C(C)NC(=O)CCS(=O)(=O)Cc2ccccc2Cl)cc1 (stereo not given)	2553	5	2.6	5	4	3	4
O=C(c1ccc(Br)o1)N1CCN(CCOc2ccccc2)CC1	3307	-23	3.4	3	4	3	2
CCCCn1c(SCC(=O)NCc2ccco2)nc2ccc(N3CCOCC3)cc2c1=O	22158*	-34	-2.5	0	-3	4	3
COC(=O)C=Cc1ccccc1S(=O)(=O)N(Cc1ccccc1)Cc1ccco1	·	·	14	·	18	19	9
O=C(Nc1ccc2ccccc2c1)C(c1ccccc1)C1CCCC1 (stereo not given)	2609	-10	-12	14	-2	14	0
Cc1ccccc1N1C(S)=C(C#N)C(=O)NC1c1cccs1 (stereo not given)	4303	-16	5.2	1	-3	10	7
COc1cccc(C(=O)NCC2CCCN2S(=O)(=O)c2cccs2)c1 (stereo not given)	?	-4	2.5	6	9	11	7
O=CN1CCN(C(C(=O)NC2CCCCC2)c2cc3c(cc2[N+](=O)[O-])OCO3)CC1 (stereo not given)	3082	-22	12	·	4	-7	-1
Cc1cccc(-n2c(O)cnc2Nc2nc(C)cc(C)n2)c1	4366	-2	5.9	5	8	3	-10
COc1ccc(/C=C/C(=O)c2ccc3c4c(cccc24)CC3)cc1	8476	-22	4.4	-11	56	9	13
CCOc1ccc(NC(=O)CN2CCN(CC(=O)c3ccc(OCC)cc3)CC2)cc1	3857	4	-3.7	-11	8	·	·
Cc1cc(C)n(-c2nc(-c3ccc(Cl)c(Cl)c3)cs2)n1	4389	-19	1.5	0	-3	8	11
Cc1ccc(Cn2nnc3c(=O)[nH]c(C4CCN(S(=O)(=O)/C=C/c5ccccc5)CC4)nc32)cc1	6476	-6	-2.9	-10	17	3	0
COc1ccc(NC(=S)N(CCCN2CCC(C)CC2)Cc2cccs2)cc1Cl	4093	0	-0.1	6	-2	7	12
Cc1ccc(C=NNC(=O)c2c[nH]c3ccccc23)o1	·	·	1.9	·	-12	10	5
CCn1c(CSc2nc(C)cc(C)n2)nnc1SCC(=O)Nc1nc(-c2ccccc2)cs1	16261*	-1	11	-2	23	5	9

smiles	Autofluor counter	PrP UTR inh	RN4220 kill	BJeLR viability	Sa ugtP lethal	Mtb hypoxia inh	Mtb hypoxia inh growth
O=C(CSc1nc2cc(Cl)ccc2s1)Nc1cccc(S(=O)(=O)N2CCOCC2)c1	2154	-10	1.3	-18	9	11	5
Cc1ccc(-c2nn(CC(N)=O)c(=O)c3ccccc23)cc1S(=O)(=O)N(C)C	8002	-20	2.9	5	-6	5	10
Cn1c(NCC(O)c2ccccc2)nc2c1c(=O)n(Cc1ccc(Cl)c(Cl)c1)c(=O)n2C (stereo not given)	5156	-18	-8.2	7	0	·	·
Cc1ccccc1OCC(=O)NC(=S)Nc1ccc(S(=O)(=O)NC2CCCCC2)cc1	5027	-20	-2.9	14	7	·	·
NC(=O)NN=Cc1cc(F)cc(F)c1	·	·	-2.7	·	-1	-1	10
CC(CC(=O)Nc1cccc(Cl)c1)=NNC(=O)Cc1ccc(Cl)cc1	·	·	2.7	·	-7	1	-1
Cc1noc(NS(=O)(=O)c2ccc(NC(=O)NC(C)(C(F)(F)F)C(F)(F)F)cc2)c1C	3849	6	1.6	-25	-2	8	0
COc1ccccc1CC(=O)N1CCC(n2nccc2NC(=O)C2CCOC2)CC1 (stereo not given)	6120	-15	1.4	19	3	11	2
Cc1ccc(-c2nc(CN(C)Cc3cccc4cnccc34)c(C)o2)s1	2296	-5	1.3	5	1	-8	-3
N#Cc1c(-c2ccncc2)cc(-c2ccc(F)cc2)nc1N	2951	-1	6.8	4	5	8	6
O=C1c2ccccc2NC(c2cccs2)N1O (stereo not given)	5258	-23	2.3	·	2	8	6
O=C(CSc1nnc(-c2ccncc2)o1)N1CCCCCC1	4090	-21	3.2	-14	20	4	4
COc1ccc(NS(=O)(=O)c2cccc(C(=O)NCC3CCCO3)c2)cc1 (stereo not given)	·	-20	1.2	-11	6	1	-3
N/C(=N\OC(=O)Cc1cccs1)c1ccc(Br)cc1	2175	-40	2.9	5	21	10	6
COc1ccc(S(=O)(=O)Nc2c(NC3CCCCC3)c3ccccc3oc2=O)cc1OC	6495	-9	-0.5	-3	9	7	1
